HSD17B inhib = blocks hydroxysteroid 17-beta dehydrogenase activity | recombinant HSD17B10, NADH fluorescence kinetic; many of its hits are not listed in these tables | Potency, µM (series often up to 57.1 µM), inactives show at the top dose activity change, negative = inhibition, usual class: inhibitors | 75,000 tested, 7.6% active; active = well fitted inhibition curve with a large enough effect; inconclusive = small, poorly fitted or top-dose-only effect; inactive = no such curve, though single readings can be large or run the other way;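 note: the protocol describes HADH2 (HSD17B10) and not the HSD17B4 of the title; nearly all actives have a fitted effect of over 70% in size; most hits overshoot -100% by far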
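Activity followed as NADH fluorescence increase (ex 360, em 450 nm) every 30 seconds for 4 min, using final 90 uM beta-hydroxybutyryl CoA and 1 mM NAD+. Recombinant His-tagged enzyme, 20 nM, pH 9.0 Tris buffer, 15 min compound preincubation.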
Active calls of the source: *; & = joins results of further samples; [ ] = another dose, or the depositor's remark. % is set by controls: 0 for no effect and ±100 for the full control effect; potency is the fitted concentration of half-maximal effect.

`CC1(C)CCC2(C(=O)O)CC[C@]3(C)C(=CCC4[C@]5(C)CCC(O)C(C)(C)C5C(O)C[C@]43C)C2C1` (stereo partly drawn) gave HSD17B inhib inconclusive.
Screening CC1(C)CC(=O)C=C(Nc2ccccc2O)C1 returned HSD17B inhib -10%.
Screening Cc1nc(S(=O)(=O)N2CCOCC2)c(C#N)c(C)c1Cl returned HSD17B inhib 8%.
COc1cccc(N(CC(=O)NC(C)(C)C)C(=O)C2CSC(=O)C2)c1 (stereo not drawn) was read as HSD17B inhib 4%.
CCCCn1c2c(c(=O)n(C)c1=O)C(CC(=O)OCC(=O)Nc1cccc(C(F)(F)F)c1)C(=O)N2 (stereo not drawn) was read as HSD17B inhib -8%.
`COc1ccc(C)cc1NC(=O)CN1CCN(c2ccc(F)cc2)CC1` gave HSD17B inhib 3%.
`CC1=C(C(=O)OCc2ccccc2)C(c2ccco2)C2=C(CC(C)(C)CC2=O)N1` (stereo not drawn) gave HSD17B inhib inconclusive.
For COC(=O)Cc1[nH]nc2c1C(c1cccc(OC)c1OC)C(C#N)=C(N)O2 (stereo not drawn) the results were HSD17B inhib 2%.
Screening CCN(CCNC(=O)c1cccc(N2CCCC2=O)c1)c1ccccc1 returned HSD17B inhib -4%.
COc1ccc(N(CC(=O)N2CCN(C)CC2)S(=O)(=O)c2ccccc2)cc1OC was read as HSD17B inhib -3%.
Screening O=C(Nc1cccc2c1CCCC2)C1CCN(c2nnnn2-c2ccccc2)CC1 returned HSD17B inhib 9%.
For CCOc1ccc(-c2nc(C#N)c(NC3CC3)o2)cc1 the results were HSD17B inhib 32µM*.
`CC(C)(C)N=C1SCC(C)(/C=N/O)S1` (stereo not drawn) gave HSD17B inhib 1%.
For CC(C)(C)NC(=O)CN(Cc1cccs1)C(=O)c1csnn1 the results were HSD17B inhib -4%.
`CC(Nc1cc(=O)n(C)c(=O)[nH]1)c1ccccc1` (stereo not drawn) gave HSD17B inhib -2%.

Continued, overlapping the part above by 5 compounds.
Screening O=C(Nc1cccc2c1CCCC2)C1CCN(c2nnnn2-c2ccccc2)CC1 returned HSD17B inhib 9%.
For CCOc1ccc(-c2nc(C#N)c(NC3CC3)o2)cc1 the results were HSD17B inhib 32µM*.
`CC(C)(C)N=C1SCC(C)(/C=N/O)S1` (stereo not drawn) gave HSD17B inhib 1%.
For CC(C)(C)NC(=O)CN(Cc1cccs1)C(=O)c1csnn1 the results were HSD17B inhib -4%.
`CC(Nc1cc(=O)n(C)c(=O)[nH]1)c1ccccc1` (stereo not drawn) gave HSD17B inhib -2%.
Screening Cc1ccc(C)c(NS(=O)(=O)c2c(C)ccc3nsnc23)c1 returned HSD17B inhib -1%.
c1ccc2c(N3CCCCC3)nc(N3CCCC3)nc2c1 was read as HSD17B inhib 32µM*.
For Cc1ccc(Cn2c(NCCc3ccccc3)nc3c2c(=O)n(C)c(=O)n3C)cc1 the results were HSD17B inhib 2%.
For O=C(CC(=O)c1cc(Cl)ccc1O)c1ccccc1 the results were HSD17B inhib 36%[activator].
CCc1cccc2c(=O)c(C(=O)N3CCCCCC3)c[nH]c12 was read as HSD17B inhib -5%.
COC(=O)C/C=C\[C@@H](C)[C@@H](/C=N\O[C@@H](C)c1cn([C@H](CO)Cc2ccccc2)nn1)NS(=O)(=O)c1ccc(C)cc1 was read as HSD17B inhib 1%&5%[11.4 µM].
For NC(=O)NC(c1ccccc1)c1ccccc1F (stereo not drawn) the results were HSD17B inhib 0%.
Screening COC(=O)c1oc2nc(C)cc(C)c2c1N returned HSD17B inhib 32µM*.
`CC(C)NC(=O)Cn1c(SCC(=O)N2CCCc3ccccc32)nc2ccccc21` gave HSD17B inhib -2%.
Screening C=CCOC(=O)CCCCCCCC returned HSD17B inhib 4%.
`CC(C)CO/N=C1/[C@H]2O[C@@H]2[C@@H](O)[C@H]2[C@H]1CCn1c(=O)n(Cc3cc4c(cc3Cl)OCO4)c(=O)n12` gave HSD17B inhib 0%[11.4 µM].
For Cc1nnc(N(Cc2ccco2)C(=O)c2cccc(C#N)c2)s1 the results were HSD17B inhib 8%.
For COC(=O)c1ccc(OCc2nc(N)nc(N3CCOCC3)n2)cc1 the results were HSD17B inhib 6%.
COc1ccc(Br)cc1C(=O)Nc1ccc(O)cc1 was read as HSD17B inhib 82%[activator].
Cc1cc(O)ccc1NC(=O)c1ccccc1 was read as HSD17B inhib 1%.
`COc1cc(C(=O)NCCc2ccc(S(N)(=O)=O)cc2)cc(OC)c1OC` gave HSD17B inhib -7%.
`CN1CCN(S(=O)(=O)c2ccc(-c3ccc(S(=O)(=O)N4CCN(C)CC4)cc3)cc2)CC1` gave HSD17B inhib 3%.
For Cn1c(=O)cc(OCC(=O)NC2CCCCC2)c2ccccc21 the results were HSD17B inhib -6%.
For CC1(c2ccccc2)NC(=O)N(CC(=O)NC(=O)NC2CCCC2)C1=O (stereo not drawn) the results were HSD17B inhib 13%.
CCC(Cc1ccccc1)NC(=O)CN1C(=O)CSc2ncccc21 (stereo not drawn) was read as HSD17B inhib 0%.
`CCNC(=O)C1CC(=O)N(Cc2ccc3c(c2)OCO3)C(=Nc2ccc(OCC)cc2)S1` (stereo not drawn) gave HSD17B inhib 7%.
Cc1c(OCc2ccccc2)cccc1OCc1ccccc1 was read as HSD17B inhib -3%[11.4 µM].
O=c1c(-c2ccc(F)c(F)c2)nc2cncnc2n1Cc1ccccc1Cl was read as HSD17B inhib -3%.
COCCCNC(=O)C1CCN(c2nc(C)cc(C)n2)CC1 was read as HSD17B inhib 32µM*.
`Cc1ccc(S(=O)(=O)N(Cc2ccccc2)Cc2ccco2)cc1` gave HSD17B inhib -16%.
Screening O=C(NCCN1CCN(c2ccccc2)CC1)C1CCN(S(=O)(=O)c2cccc3nonc23)CC1 returned HSD17B inhib 8%.
`CCOc1ccc2ccccc2c1C(=O)N1CCN(c2ccccc2)CC1` gave HSD17B inhib inconclusive.
Screening CC(c1ccco1)N(C(=O)C12CC3CC(CC(C3)C1)C2)c1ccccn1 (stereo not drawn) returned HSD17B inhib 5%.
Screening Cc1cc(C)c(C(=O)CSc2nnc(-c3ccccc3Br)o2)cc1C returned HSD17B inhib 4%.
For CN(C)CCN1C(=O)C(=O)/C(=C(/O)c2ccc(F)cc2)C1c1ccccc1F (stereo not drawn) the results were HSD17B inhib 2%.

A draw from above in order of SMILES length, ascending:
For Cn1c(=O)cc(OCC(=O)NC2CCCCC2)c2ccccc21 the results were HSD17B inhib -6%.
`Cc1ccc(S(=O)(=O)N(Cc2ccccc2)Cc2ccco2)cc1` gave HSD17B inhib -16%.
Screening CC(c1ccco1)N(C(=O)C12CC3CC(CC(C3)C1)C2)c1ccccn1 (stereo not drawn) returned HSD17B inhib 5%.
`CN1CCN(S(=O)(=O)c2ccc(-c3ccc(S(=O)(=O)N4CCN(C)CC4)cc3)cc2)CC1` gave HSD17B inhib 3%.

(next part)
`COc1ccccc1CC(=O)N1CCN(c2cccc(C(F)(F)F)c2)CC1` gave HSD17B inhib -18%.
`O=C(c1ccc2c3c(cccc13)CC2)N1CCN(c2ncccn2)CC1` gave HSD17B inhib inconclusive.
Cn1c(=O)c2c(ncn2CC(=O)OCC(=O)NC2CCCc3ccccc32)n(C)c1=O (stereo not drawn) was read as HSD17B inhib 3%.
CC(=O)OC(C(=O)c1ccccc1)c1ccccc1 (stereo not drawn) was read as HSD17B inhib 2%.
COc1cc(NS(=O)(=O)c2ccc(C)cc2)c2ncccc2c1 was read as HSD17B inhib -8%.
For CCOc1ccccc1-c1nc(C(N)=O)c2[nH]c(=O)n(-c3cccc(C)c3)c2n1 the results were HSD17B inhib 25µM*.
C=C(C)OC(C)=O was read as HSD17B inhib inconclusive.
COC(=O)NC(c1ccc(Cl)cc1)C(C(C)=O)C(=O)OC (stereo not drawn) was read as HSD17B inhib 3%[11.4 µM].
Cc1cc(C)c2c(n1)sc1c(O)cc(=O)[nH]c12 was read as HSD17B inhib 32µM*.
`CCOC(=O)CNc1c(-c2ccc(O)cc2)nc2ccc(Cl)cn12` gave HSD17B inhib -13%.
For CC(C)NC(=O)c1ccccc1NC(=O)c1ccccc1N(C)S(C)(=O)=O the results were HSD17B inhib 2%.
For CC1=Nn2c(nnc2-c2ccccc2)SC1 the results were HSD17B inhib 3%.
For O=C(c1cccc(-c2nnc(-c3ccccc3)o2)c1)N1CCCCC1 the results were HSD17B inhib -4%.
`CC(=O)Nc1cccc(N2C(=O)CC(N3CCC(C(=O)N4CCCCC4)CC3)C2=O)c1` (stereo not drawn) gave HSD17B inhib -8%.
For COCCCNC(=O)Cn1cc2c(n1)CCC(C)C2 (stereo not drawn) the results were HSD17B inhib 2%.
For COc1cc2ccc(=O)oc2c(OC)c1OC the results were HSD17B inhib 25µM*.
CCOc1ccc2[nH]c(=O)c(C(c3nnnn3C3CCCCC3)N3CCN(CC)CC3)cc2c1 (stereo not drawn) was read as HSD17B inhib -24%.
For CCOc1ccc(NC(=O)CC2CC(C)(C)OC2=O)cc1 (stereo not drawn) the results were HSD17B inhib 3%.
For Cc1nnc(NC(=O)CSc2nnc3scc(-c4ccc(C)c(C)c4)n23)s1 the results were HSD17B inhib 6%.
Screening CC(=O)Nc1nc(CC(C)C)cc2c1c(=O)oc1ccccc12 returned HSD17B inhib -13%.
Screening O=C(CN1CCN(Cc2ccccc2)CC1)Nc1ccc(Cl)cn1 returned HSD17B inhib -2%.
CCOc1cc(-c2conc2N)cc(OCC)c1OCC was read as HSD17B inhib 0%.
For COc1ccc(S(=O)(=O)N2CCOCC2)c(Cl)c1Cl the results were HSD17B inhib 14%.
CCC(C)(C)NC(=O)C(c1ccc(F)cc1)N(Cc1ccco1)C(=O)c1snc(C(N)=O)c1N (stereo not drawn) was read as HSD17B inhib 25µM*.
COC(=O)CNC(=O)Cn1cnc2sc(C)c(S(=O)(=O)N3CCC(C)CC3)c2c1=O was read as HSD17B inhib -1%.
O=C1c2ccccc2C(Nc2cccnc2)N1Cc1ccccc1Cl (stereo not drawn) was read as HSD17B inhib 2%.
Screening O=C(CSc1nc2ccccc2n1CC(=O)N1CCCC1)NCc1ccc2c(c1)OCO2 returned HSD17B inhib -6%.
Screening O=S(NC1CCCCC1)C12CC3CC(CC(C3)C1)C2 (stereo not drawn) returned HSD17B inhib 0%.
`CS(=O)(=O)N1CCN(C(=O)c2cc(-c3ccncc3)nc3ccc(Cl)cc23)CC1` gave HSD17B inhib 2%.
Screening Cc1cccc(C(=O)NCN2CCN(c3ccccc3C#N)CC2)c1 returned HSD17B inhib -8%&-17%.
Screening CCCc1cc(=O)[nH]c(SCC(=O)c2cc(C)n(CCOC)c2C)n1 returned HSD17B inhib 8%.
For O=C(CSc1ncccn1)NCc1ccccc1Cl the results were HSD17B inhib 4%.
Screening C=CCN(CC=C)C(=O)Cc1ccc(F)cc1 returned HSD17B inhib 5%.
Screening COc1cccc(C(=O)OCn2nnc3ccccc3c2=O)c1 returned HSD17B inhib -2%.
Screening COC(=O)c1cccc(S(=O)(=O)N2CCC(NC(=O)NC34CC5CC(CC(C5)C3)C4)CC2)c1 returned HSD17B inhib -3%.
For O=C(O)c1cc(=O)c2ccc(Cl)cc2[nH]1 the results were HSD17B inhib -26%.
`Cc1nnc(NC(=O)C2CCN(c3cnccn3)CC2)s1` gave HSD17B inhib -3%.
Screening Cc1cc(C)c2c3c(c(-c4ccccc4)n2n1)c(=O)n(C)c(=O)n3C returned HSD17B inhib 1%.
Screening COc1cccc(-c2ccc(-c3noc(-c4ccccc4F)n3)c(OC)n2)c1 returned HSD17B inhib 32µM*.
Screening COc1ccc2c(c1)CCc1c(C(=O)N3CC4(C)CC3CC(C)(C)C4)noc1-2 (stereo not drawn) returned HSD17B inhib -13%.
Screening O=C(OCCN1C(=O)c2ccccc2C1=O)c1cc(S(=O)(=O)N2CCOCC2)ccc1Cl returned HSD17B inhib 3%.
`CCOC(=O)N1CCN(S(=O)(=O)c2ccc(Br)s2)CC1` gave HSD17B inhib 7%.
CCOC(=O)C1CCN(C(=O)CSc2cc(=O)n(C)c3ccccc23)CC1 was read as HSD17B inhib inconclusive.
`COc1cc(C)c(C(C)C)cc1S(=O)(=O)N1CCN(C)CC1` gave HSD17B inhib 9%.
COc1ccc(OC)c(C2=NOC(C(=O)Nc3cccc(C(C)=O)c3)C2)c1 (stereo not drawn) was read as HSD17B inhib -23%.
O=C(O)C1CCC(CNCc2cccnc2)CC1 (stereo not drawn) was read as HSD17B inhib 11%.
`O=C1C2CC=CCC2C(=O)N1CC1CCCO1` (stereo not drawn) gave HSD17B inhib 5%.
For CCN1C(=O)C(O)(CC(=O)c2ccc(-n3cccc3)cc2)c2ccccc21 (stereo not drawn) the results were HSD17B inhib -28%.
Screening FC(F)(F)Oc1ccc(Nc2nc3ccccc3o2)cc1 returned HSD17B inhib 4%.
Screening O=c1cc(-c2ccccc2O)oc2cc(O)cc(O)c12 returned HSD17B inhib -6%.
For c1ccc(CC2CNc3ccccc3CN2)cc1 (stereo not drawn) the results were HSD17B inhib -12%.
`CCC(C)NS(=O)(=O)c1cccs1` (stereo not drawn) gave HSD17B inhib 8%.
Screening COc1ccccc1-n1c(CNC(=O)c2ccccc2)nnc1SCC(=O)Nc1nnc(C)s1 returned HSD17B inhib -1%.
Screening O=C(NC1CCC(NC(=O)C(F)(F)C(F)F)CC1)C(F)(F)C(F)F (stereo not drawn) returned HSD17B inhib 1%.
For Cc1cccc(C)c1NC(=O)CSCCO the results were HSD17B inhib 7%.

Assay outcomes (PubChem)

This is a subset (hit frequency here may not be typical).
